Assay outcomes as filed in PubChem BioAssay.
KCNK3 block = human KCNK3 channel inhibition, primary screen | CHO-KCNK3 thallium flux, FluxOR fluorescence; hits give low values | O14649 | 340,000 tested, 0.84% active | B-score at 10 µM | AID 602410;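 active = B-score under library mean minus 4 SD, starting fluorescence ratio at most library mean plus 5 SD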;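 note: more negative B-score means stronger inhibition of thallium flux through KCNK3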
Target sequence (O14649 whole entry, looked up): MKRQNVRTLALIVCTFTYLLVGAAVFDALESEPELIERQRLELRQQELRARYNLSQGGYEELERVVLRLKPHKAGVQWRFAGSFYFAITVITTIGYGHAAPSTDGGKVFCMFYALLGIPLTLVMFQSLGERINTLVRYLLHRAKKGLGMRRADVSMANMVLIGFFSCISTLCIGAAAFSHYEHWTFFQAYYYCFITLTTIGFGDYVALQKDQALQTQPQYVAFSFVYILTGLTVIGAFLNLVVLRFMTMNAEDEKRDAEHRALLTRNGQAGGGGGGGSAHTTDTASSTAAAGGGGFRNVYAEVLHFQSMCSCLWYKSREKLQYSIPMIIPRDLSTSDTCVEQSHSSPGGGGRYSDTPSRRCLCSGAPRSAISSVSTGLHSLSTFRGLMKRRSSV
PolyA inh = inhibitors of polyadenylation in S. cerevisiae. S. cerevisiae SKY197-pL101 polyadenylation reporter, beta-gal luminescence; efflux-impaired pdr1/pdr3 knockout yeast; score 100 = 6 SD above DMSO. calls only at 12 µM. 300,000 tested, 0.02% active;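 active = lowest replicate activity score at least 50, where 100 means six control SD above control mean; inconclusive = lowest score under 50 but half or more replicates reach 50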;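 note: yeast exposed to compound for 9 h at 30 °C; higher score means more reporter readthrough which indicates perturbed polyadenylation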
DYRK1A inh = blocks rat Dyrk1A kinase activity. Q63470. ADP-Glo luminescence, NFATc1 peptide. inhibition, % at 12.5 µM. 310,000 tested, 0.43% active; in the data active = inhibition above about 50%;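 note: plate controls were vehicle with enzyme for no effect and no enzyme for full effect; many of its hits are not listed in these tables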
Platelet DG rel = modulates dense granule release in human platelets. human platelet-rich plasma, SFLLRN dense granule ATP release, luminescence. inhibition, %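 (compounds screened at 7.5 µM in platelet-rich plasma)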. 300,000 tested, 0.22% active. AID 1663;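 active = mean replicate score, as percent of positive control, at or above 50; inconclusive = mean below 50 but at least one replicate at or above 50; inactive = mean and every replicate below 50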
KCNQ1 pot = human KCNQ1 channel potentiation or activation; P51787; B-score at 10 µM; CHO-K1 KCNQ1, thallium flux FluxOR fluorescence; hits give high values; 310,000 tested, 0.35% active;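 active = fluorescence ratio B-score, a plate-corrected score, at least three library SD, with initial intensity B-score within 5 SD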
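System: Stable KCNQ1 CHO-K1 line | Incubation: 90 min dye loading and 20 min compound exposure, both at room temperature | Measure: Ratio B score | Medium: Assay buffer for compound exposure, DMSO matched across wells | Compound dosing: Single-concentration screen | Probe or stimulus: K+/Tl+ depolarizing stimulus | Measured by: Kinetic FluxOR fluorescence, 10 s baseline plus 110 s post-stimulus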
TRPC4 act = activators of mouse TRPC4 channel; Q9QUQ5; HEK293 TRPC4beta/mu-opioid, Fluo4 calcium fluorescence; hits give high values; B-score at 10 µM; 310,000 tested, 0.49% active;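 active = B-score above 5 SD of library B-scores, and initial fluorescence ratio not above library mean plus 5 SD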;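 note: positive B-score marks a calcium rise read as TRPC4 activation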
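Technique: kinetic Fluo4 calcium fluorescence; Test system: TRPC4beta and mu-opioid receptor HEK293 stable cells; Measure: B-scored integrated calcium fluorescence ratio; Benchmarks: low control buffer alone, high control maximal DAMGO; Schedule: 45 min room-temperature Fluo4 loading, 110 s read.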
TRPC4 block = TRPC4 (mouse) channel inhibition | Q9QUQ5 | HEK293 TRPC4beta/mu-opioid, DAMGO-evoked Fluo4 calcium flux; hits give low values | B-score at 10 µM | 300,000 tested, 0.39% active;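 active = B-score over 3 SD under the library average, no early fluorescence shift, positive overall ratio signal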
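Assay system: TRPC4beta/mu-opioid receptor HEK293 cell line; compound dosing: single concentration per test compound; detection: Fluo4 Ca2+ flux fluorescence; evaluation: per-well B score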
KCNK9 block = blocks the human KCNK9 two-pore domain potassium channel | B-score at 10 µM | HEK293 KCNK9, FluxOR thallium flux fluorescence; hits give low values | AID 488922 | Q9NPC2 | 310,000 tested, 1.2% active;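 active = ratio B-score over 3 SD below the library mean, with starting fluorescence within 5 SD of its mean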;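 note: negative B-score means less thallium flux so channel inhibition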
Target sequence (Q9NPC2 whole entry, looked up, the tested form may be a part): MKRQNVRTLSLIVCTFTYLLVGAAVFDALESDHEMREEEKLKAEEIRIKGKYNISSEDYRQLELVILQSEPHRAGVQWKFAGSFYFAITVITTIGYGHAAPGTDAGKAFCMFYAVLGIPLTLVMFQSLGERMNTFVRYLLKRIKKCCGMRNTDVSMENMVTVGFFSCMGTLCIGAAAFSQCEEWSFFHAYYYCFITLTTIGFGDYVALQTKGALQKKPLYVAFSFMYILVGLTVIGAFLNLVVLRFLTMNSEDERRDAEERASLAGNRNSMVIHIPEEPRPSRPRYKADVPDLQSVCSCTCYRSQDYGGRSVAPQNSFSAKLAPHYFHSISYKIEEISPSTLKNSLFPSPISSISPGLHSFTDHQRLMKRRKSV
KCNQ1 inh = inhibitors of human KCNQ1 potassium channel. P51787. CHO-K1 KCNQ1, FluxOR thallium flux fluorescence; hits give high values. B-score at 10 µM. 310,000 tested, 1.3% active. AID 2642;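 active = compounds whose thallium flux B-score, printed positive for inhibition, exceeds three library SD while starting fluorescence stays within three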;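 note: channel opened by potassium depolarization with thallium stimulus after 20 min compound exposure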
TRPC4 PAM = allosterically enhances the mouse TRPC4 cation channel | HEK293 TRPC4beta/mu-opioid, DAMGO EC20, Fluo-4 Ca2+ flux; hits give high values | 310,000 tested, 0.42% active | Q9QUQ5 | B-score at 10 µM;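 active = B-score of calcium response area above 5 SD of library B-scores, with initial fluorescence ratio within 5 SD of library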;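 note: B-score of integrated fluorescence ratio over time as area under calcium response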
The depositor's hits bear a star; i = inactive; ? = inconclusive; · = not tested or not shown. An excerpt; count on the stated rates, not on these rows.

| Structure | KCNK3 block | PolyA inh | DYRK1A inh | Platelet DG rel | KCNQ1 pot | TRPC4 act | TRPC4 block | KCNK9 block | KCNQ1 inh | TRPC4 PAM |
| --- | --- | --- | --- | --- | --- | --- | --- | --- | --- | --- |
| CC#C[C@]1(O)CC[C@H]2[C@@H]3CCC4=CC(=O)CCC4=C3[C@@H](c3ccc(N(C)C)cc3)C[C@@]21C | i | i | -5.2 | 0.6 | i | i | i | i | i | i |
| CCOCCCn1c(=N)c(C(=O)NCc2ccc3c(c2)OCO3)cc2c(=O)n3cccc(C)c3nc21 | i | i | -1.4 | 1.0 | i | i | i | i | i | i |
| CCn1nc(C(=O)O)c(=O)c2cc3c(cc21)OCO3 | i | i | 7.4 | 1.4 | i | i | i | i | i | i |
| CC(=O)Nc1cccc(NC(=O)CSc2nnc(Cc3cccn3C)n2-c2ccc(F)cc2)c1 | i | i | -1.1 | -9.1 | i | i | i | i | i | i |
| Cc1ccccc1-c1nc(CN2CCC(C(=O)NCCCN3CC(C)CC(C)C3)CC2)c(C)o1 (stereo unspecified) | i | i | 0.0 | -0.3 | i | i | i | i | i | i |
| COc1cc([C@@H]2c3cc4c(cc3[C@@H](O[C@@H]3O[C@@H]5CO[C@@H](C)O[C@H]5[C@H](O)[C@H]3O)[C@H]3COC(=O)[C@H]23)OCO4)cc(OC)c1O | i | i | 4.8 | -1.7 | i | i | i | i | i | i |
| CN(C)c1nc(N(C)C)nc(N(C)C)n1 | i | i | -13.8 | 0.2 | i | i | i | i | i | i |
| Cc1sc2ncnc(N3CCN(c4ncccn4)CC3)c2c1C | i | i | 19.6 | -0.2 | i | i | i | i | i | i |
| COc1ccc(C2c3c(C)nn(-c4ccccc4)c3NC(=O)N2c2ccccc2)cc1 (stereo unspecified) | i | i | 0.9 | -2.6 | i | i | i | i | i | i |
| CC(=O)Nc1cccc(C(=O)O)n1 | i | i | 1.7 | 9.4 | i | i | i | i | i | i |

Structural class: the entries above with an aryl methoxy group (two)
| Structure | KCNK3 block | PolyA inh | DYRK1A inh | Platelet DG rel | KCNQ1 pot | TRPC4 act | TRPC4 block | KCNK9 block | KCNQ1 inh | TRPC4 PAM |
| --- | --- | --- | --- | --- | --- | --- | --- | --- | --- | --- |
| COc1cc([C@@H]2c3cc4c(cc3[C@@H](O[C@@H]3O[C@@H]5CO[C@@H](C)O[C@H]5[C@H](O)[C@H]3O)[C@H]3COC(=O)[C@H]23)OCO4)cc(OC)c1O | i | i | 4.8 | -1.7 | i | i | i | i | i | i |
| COc1ccc(C2c3c(C)nn(-c4ccccc4)c3NC(=O)N2c2ccccc2)cc1 (stereo unspecified) | i | i | 0.9 | -2.6 | i | i | i | i | i | i |

Going on with the list:
| Structure | KCNK3 block | PolyA inh | DYRK1A inh | Platelet DG rel | KCNQ1 pot | TRPC4 act | TRPC4 block | KCNK9 block | KCNQ1 inh | TRPC4 PAM |
| --- | --- | --- | --- | --- | --- | --- | --- | --- | --- | --- |
| Nc1nc2ncc(CNc3ccc(C(=O)N[C@@H](CCC(=O)O)C(=O)O)cc3)nc2c(=O)[nH]1 | i | i | -1.8 | -0.6 | i | i | i | i | i | i |
| COc1cc2c(O)c3c(c(-c4ccc5c(c4)OCO5)c2cc1OC)C(=O)OC3 | i | i | · | 1.3 | i | i | i | i | i | i |
| COC1=CC(=O)CC(C)C12Oc1c(Cl)c(OC)cc(OC)c1C2=O (stereo unspecified) | i | · | 6.1 | -4.5 | i | i | i | i | i | i |
| COc1ccc(Oc2nc3c(c(=O)n(C)c(=O)n3C)n2Cc2ccccc2)cc1 | i | i | -3.0 | 11.5 | i | i | i | i | i | i |
| COc1cc(/C=C/C(=O)CC(=O)/C=C/c2ccc(O)c(OC)c2)ccc1O | i | i | 24.7 | 9.1 | i | 84* | i | i | i | i |
| CCCCN1C(=O)N(c2nnc(C(C)(C)C)s2)C(O)C1c1ccc(C)cc1 (stereo unspecified) | i | i | -1.1 | -20.1 | i | i | i | i | i | i |
| CC(=O)OCC(=O)C1(O)CCC2C3CCC4=CC(=O)C=CC4(C)C3C(O)CC21C (stereo unspecified) | i | · | · | -6.4 | i | i | i | i | i | i |
| CCOc1cc(C)c(Cl)cc1S(=O)(=O)N(C)C | i | i | 7.6 | -7.2 | i | i | i | -7.52* | i | i |
| CCCN(CCC)Cc1c(C(=O)N/N=C/c2ccoc2)nnn1-c1nonc1N | i | i | -1.2 | -3.3 | i | i | i | i | i | i |
| CCCCC1=NC2(CCCC2)C(=O)N1Cc1ccc(-c2ccccc2-c2nn[nH]n2)cc1 | · | i | · | -5.8 | i | i | i | i | i | i |

Filtered by structure, those above with an NH in an aromatic ring
| Structure | KCNK3 block | PolyA inh | DYRK1A inh | Platelet DG rel | KCNQ1 pot | TRPC4 act | TRPC4 block | KCNK9 block | KCNQ1 inh | TRPC4 PAM |
| --- | --- | --- | --- | --- | --- | --- | --- | --- | --- | --- |
| Nc1nc2ncc(CNc3ccc(C(=O)N[C@@H](CCC(=O)O)C(=O)O)cc3)nc2c(=O)[nH]1 | i | i | -1.8 | -0.6 | i | i | i | i | i | i |
| CCCCC1=NC2(CCCC2)C(=O)N1Cc1ccc(-c2ccccc2-c2nn[nH]n2)cc1 | · | i | · | -5.8 | i | i | i | i | i | i |

Marked active in KCNK9 block, among the entries above:
| Structure | KCNK3 block | PolyA inh | DYRK1A inh | Platelet DG rel | KCNQ1 pot | TRPC4 act | TRPC4 block | KCNK9 block | KCNQ1 inh | TRPC4 PAM |
| --- | --- | --- | --- | --- | --- | --- | --- | --- | --- | --- |
| CCOc1cc(C)c(Cl)cc1S(=O)(=O)N(C)C | i | i | 7.6 | -7.2 | i | i | i | -7.52* | i | i |

Later entries
| Structure | KCNK3 block | PolyA inh | DYRK1A inh | Platelet DG rel | KCNQ1 pot | TRPC4 act | TRPC4 block | KCNK9 block | KCNQ1 inh | TRPC4 PAM |
| --- | --- | --- | --- | --- | --- | --- | --- | --- | --- | --- |
| CCCCC[C@H](O)/C=C/[C@H]1[C@H](O)CC(=O)[C@@H]1CCCCCCC(=O)O | · | i | · | ? | i | i | i | i | i | i |
| COc1ccc(C(=O)N/C(=C\c2cccs2)c2nc3ccccc3[nH]2)cc1OC | i | · | -1.2 | 11.4 | i | i | i | i | i | i |
| COc1ccc(CNc2ncnc3cc(Cl)ccc23)cc1 | i | i | -4.0 | 3.7 | i | i | i | i | i | i |
| CCC(C)(C)C(=O)O[C@H]1C[C@@H](C)C=C2C=C[C@H](C)[C@H](CC[C@@H]3C[C@@H](O)CC(=O)O3)[C@H]21 | i | i | 2.0 | -0.4 | i | i | i | i | i | i |
| N#CC1=C(N)Oc2c(oc(CO)cc2=O)C12C(=O)Nc1ccc(Cl)cc12 (stereo unspecified) | i | i | 4.6 | -4.3 | i | i | i | i | i | i |

Rewritten with two lines to a compound: 2 of the compounds above
Each structure is followed by: KCNK3 block, PolyA inh, DYRK1A inh, Platelet DG rel, KCNQ1 pot, TRPC4 act, TRPC4 block, KCNK9 block, KCNQ1 inh, TRPC4 PAM
> COc1ccc(C(=O)N/C(=C\c2cccs2)c2nc3ccccc3[nH]2)cc1OC
 : i, ·, -1.2, 11.4, i, i, i, i, i, i
> CCC(C)(C)C(=O)O[C@H]1C[C@@H](C)C=C2C=C[C@H](C)[C@H](CC[C@@H]3C[C@@H](O)CC(=O)O3)[C@H]21
 : i, i, 2.0, -0.4, i, i, i, i, i, i
